Screening results (PubChem)
RN4220 kill: growth inhibition of S. aureus RN4220, primary screen, OD600 | 16 h | inhibition, % (no concentration beside the values) | hit rate 0.33% among 330,000 | AID 1259311, 2017;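 active = z-score of -3 or lower and OD600 up to 0.18 on both plates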;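 note: plate controls were untreated cells for no effect and reference antibiotic for full effect; stock transfer was 100 nL into about 80 µL; one replicate is shown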
Bead autofluor: counter-screen for toxin protease inhibitors: compound fluorescence; compound autofluorescence counterscreen, microsphere flow cytometry; stronger effect = higher value; fluorescence intensity (no concentration beside the values); hit rate 3.1% among 360,000; AID 624483;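 active = at least 3 SD above the mean of all compounds, about 16000 in these data; inconclusive = too few beads counted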;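 note: 100 nL of 1 mM stock went into each well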
Mtb hypoxia inh: PubChem AID 1159583 | M. tuberculosis hypoxia-regulated fluorescent reporter, fluorescence | fluorescence inhibition, % (concentration not given with the values) | hit rate 0.1% among 300,000;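 active = 35 to 45% if threefold the growth effect, above 45% if 1.5-fold the growth effect; inactive = the rest, general growth blockers included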;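 note: wells of about 50 µL received 100 nL stock; 0% = vehicle wells and 100% = reference inhibitor wells; whole bacteria with a GFP reporter of the hypoxia response; strong numbers were not always called active; many hits fall short of the cut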
ugtP null kill: growth inhibition of ugtP-null S. aureus, primary screen, RN4220 ugtP deletion, OD600; 16 h; some inactives read as strong as hits; growth inhibition, % (concentration not given with the values); hit rate 0.54% among 330,000; AID 1259309, 2017;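 active = z-score under -3 and OD600 up to 0.15 on both plates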;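 note: plate controls were untreated wells for no effect and antibiotic for full effect; wells of about 80 µL received 100 nL stock; the first replicate is given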
PrP 5UTR inh: inhibition of PrP 5' UTR reporter expression; hit rate 0.35% among 340,000; cell-based PrP 5' UTR mRNA reporter, plate reader; inhibition, % (concentration not given with the values);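 active = every replicate at 50% or more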;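 note: 0 = median of the neutral control wells; tested in H4 reporter cells; numbers are from one replicate; inactives centre near -14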
BJeLR lethal: MLPCN primary cell-based screen for lethality selective to Ras in HRASV12 cells | BJeLR (HRASV12) viability, CellTiter-Glo ATP luminescence, 48 h; reference of the scale not given here | inhibition, % (no concentration beside the values) | AID 1554, 2009 | hit rate 0.17% among 300,000;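 active = replicate mean above 50%; inconclusive = above 50% but judged a plate artefact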;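 note: 50 nL library stock added to about 25 µL; numbers are from one replicate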
Mtb hypoxia inh growth: recorded beside Mtb hypoxia inh, whose call it bears; growth inhibition, %; measured here: M. tuberculosis growth (absorbance);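 0% = vehicle and 100% = reference antibiotic; read after six days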
* marks the source's active call; other numbers are inactive results.

What do the screens show for `Cc1[nH]c(=O)c(C#N)cc1-c1ccccc1`?
RN4220 kill: 3.2; Bead autofluor: 8259; Mtb hypoxia inh: 5; ugtP null kill: 0; PrP 5UTR inh: -5; BJeLR lethal: -6; Mtb hypoxia inh growth: 8

What do the screens show for `CC(=NNC(=S)Nc1cccc(C)c1)c1ccccc1`?
RN4220 kill: 2.5; Mtb hypoxia inh: 13; ugtP null kill: 15; Mtb hypoxia inh growth: 11

What do the screens show for `Cc1ccc(S(=O)(=O)Nc2ccccc2C(=O)N2CCCCC2)cc1`?
RN4220 kill: 4.7; Bead autofluor: 6147; Mtb hypoxia inh: 5; ugtP null kill: 6; PrP 5UTR inh: -21; BJeLR lethal: -1; Mtb hypoxia inh growth: 0

How did NC(=O)COC(=O)c1c2c(nc3ccccc13)CCCCC2 do in these assays?
RN4220 kill: 2.4; Bead autofluor: 3063; Mtb hypoxia inh: 21; ugtP null kill: 10; PrP 5UTR inh: -65; BJeLR lethal: 4; Mtb hypoxia inh growth: 17

What do the screens show for `Cc1cccc(OCCCn2c(CO)nc3ccccc32)c1`?
RN4220 kill: 7.1; Bead autofluor: 4813; Mtb hypoxia inh: 14; ugtP null kill: 5; PrP 5UTR inh: -26; BJeLR lethal: 7; Mtb hypoxia inh growth: 1

Results for COc1ccc([N+](=O)[O-])cc1NC(=O)c1ccc(-n2nc(C)cc2C)cc1 ?
RN4220 kill: -1.1; Bead autofluor: 4128; Mtb hypoxia inh: -12; ugtP null kill: 3; PrP 5UTR inh: -21; BJeLR lethal: -3; Mtb hypoxia inh growth: 7

What do the screens show for `COc1ccc(Oc2nc(-c3ccccn3)nc3ccccc23)cc1`?
RN4220 kill: 7.3; Bead autofluor: 6803; Mtb hypoxia inh: 11; ugtP null kill: 0; BJeLR lethal: -3; Mtb hypoxia inh growth: 2

What do the screens show for `Cc1ccc(-c2nn3c(C)nnc3s2)cc1NC(=O)COc1ccc(Cl)cc1`?
RN4220 kill: 6.7; Bead autofluor: 6327; ugtP null kill: -4; PrP 5UTR inh: -7; BJeLR lethal: -6

What do the screens show for `O=C(O)Cn1c(CCS(=O)(=O)c2ccc(Br)cc2)nc2ccccc21`?
Bead autofluor: 2493; PrP 5UTR inh: -13; BJeLR lethal: -1

How did CCOC(=O)C1CCN(C(=O)Cc2c(F)cccc2Cl)CC1 do in these assays?
RN4220 kill: 5.7; Bead autofluor: 10285; Mtb hypoxia inh: 16; ugtP null kill: 12; PrP 5UTR inh: -35; BJeLR lethal: -3; Mtb hypoxia inh growth: 7

What do the screens show for `COC(=O)CCCC(=O)Nc1ccc(Br)cc1`?
RN4220 kill: 5.6; Bead autofluor: 1934; Mtb hypoxia inh: 9; ugtP null kill: 2; PrP 5UTR inh: 2; BJeLR lethal: -13; Mtb hypoxia inh growth: 2

Results for CC(C)=C1SC(N2CCN(c3ccc(C)cc3)CC2)=NC1=O ?
RN4220 kill: 4.9; Bead autofluor: 3282; Mtb hypoxia inh: 7; ugtP null kill: -3; PrP 5UTR inh: -22; BJeLR lethal: -10; Mtb hypoxia inh growth: 9

Results for CC(C)OCC1CC(CC(=O)Nc2ccc([N+](=O)[O-])cc2)C(=O)O1 (stereo unspecified) ?
RN4220 kill: 4.3; Bead autofluor: 4722; Mtb hypoxia inh: 8; ugtP null kill: 3; PrP 5UTR inh: -5; BJeLR lethal: 1; Mtb hypoxia inh growth: 0

What do the screens show for `Cc1cc(C(F)F)n2ncc(C(=O)NCc3ccc(F)cc3)c2n1`?
RN4220 kill: 8.5; Bead autofluor: 4266; Mtb hypoxia inh: -10; ugtP null kill: 2; PrP 5UTR inh: -4; BJeLR lethal: 0; Mtb hypoxia inh growth: 13

How did COc1ccc(CC(=O)N(Cc2ccccc2)c2ccc(C)cc2)cc1OC do in these assays?
RN4220 kill: 4.5; Bead autofluor: 5778; Mtb hypoxia inh: 5; ugtP null kill: 0; PrP 5UTR inh: -7; BJeLR lethal: -2; Mtb hypoxia inh growth: 5

How did O=C(Nc1cc(S(=O)(=O)N2CCCCC2)ccc1O)c1ccccc1NS(=O)(=O)c1ccc(F)c(F)c1 do in these assays?
RN4220 kill: 21; Bead autofluor: 2185; Mtb hypoxia inh: 1; ugtP null kill: 9; PrP 5UTR inh: -15; BJeLR lethal: 5; Mtb hypoxia inh growth: 8

Results for C=CCN(Cc1nc(-c2cc(OC)ccc2OC)oc1C)C1CCS(=O)(=O)C1 (stereo unspecified) ?
RN4220 kill: 2.3; Bead autofluor: 2531; Mtb hypoxia inh: 5; ugtP null kill: -4; PrP 5UTR inh: 4; BJeLR lethal: -4; Mtb hypoxia inh growth: 13

How did O=C(O)c1cc(S(=O)(=O)N2CCCCC2)ccc1N1CCCCC1 do in these assays?
RN4220 kill: 1.3; Bead autofluor: 3490; Mtb hypoxia inh: -2; ugtP null kill: 1; PrP 5UTR inh: -16; Mtb hypoxia inh growth: -1

Results for Cc1ccc2[nH]c(=O)cc(C(=O)OC(C)C)c2c1 ?
RN4220 kill: 8.0; Bead autofluor: 4664; Mtb hypoxia inh: -6; ugtP null kill: 4; PrP 5UTR inh: -13; BJeLR lethal: -13; Mtb hypoxia inh growth: 2

What do the screens show for `O=C(Nc1ccccc1)c1c(O)[nH]c(=S)[nH]c1=O`?
RN4220 kill: 13; Bead autofluor: 3833; Mtb hypoxia inh: -6; ugtP null kill: 1; PrP 5UTR inh: 2; BJeLR lethal: 6; Mtb hypoxia inh growth: 7

Looked up by structure from the list above:
Results for CC(C)OCC1CC(CC(=O)Nc2ccc([N+](=O)[O-])cc2)C(=O)O1 (stereo unspecified) ?
RN4220 kill: 4.3; Bead autofluor: 4722; Mtb hypoxia inh: 8; ugtP null kill: 3; PrP 5UTR inh: -5; BJeLR lethal: 1; Mtb hypoxia inh growth: 0

What do the screens show for `Cc1[nH]c(=O)c(C#N)cc1-c1ccccc1`?
RN4220 kill: 3.2; Bead autofluor: 8259; Mtb hypoxia inh: 5; ugtP null kill: 0; PrP 5UTR inh: -5; BJeLR lethal: -6; Mtb hypoxia inh growth: 8

How did NC(=O)COC(=O)c1c2c(nc3ccccc13)CCCCC2 do in these assays?
RN4220 kill: 2.4; Bead autofluor: 3063; Mtb hypoxia inh: 21; ugtP null kill: 10; PrP 5UTR inh: -65; BJeLR lethal: 4; Mtb hypoxia inh growth: 17

New compounds follow
What do the screens show for `O=C(CCCn1cc([N+](=O)[O-])cn1)Nc1ccc2c(c1)OCO2`?
RN4220 kill: 2.2; Bead autofluor: 3808; Mtb hypoxia inh: -7; ugtP null kill: -2; PrP 5UTR inh: -12; BJeLR lethal: -1; Mtb hypoxia inh growth: -1

How did O=C(CSc1nc2ccsc2c(=O)n1Cc1ccc(C(=O)O)cc1)NCc1ccco1 do in these assays?
RN4220 kill: -0.4; Bead autofluor: 10672; Mtb hypoxia inh: 14; ugtP null kill: 8; PrP 5UTR inh: -22; BJeLR lethal: -1; Mtb hypoxia inh growth: 7

Results for O=C(NCCc1ccccc1)C(=NO)c1ccccc1 ?
RN4220 kill: 3.2; Mtb hypoxia inh: 2; ugtP null kill: 3; Mtb hypoxia inh growth: 3

What do the screens show for `CCCCN(C(=O)c1ccc(-c2ccc([N+](=O)[O-])cc2)o1)c1c(N)n(CC(C)C)c(=O)[nH]c1=O`?
RN4220 kill: 0.3; Bead autofluor: inconclusive; Mtb hypoxia inh: 0; ugtP null kill: -3; PrP 5UTR inh: -20; Mtb hypoxia inh growth: 1

How did Clc1cccc(NCc2nnc(SCc3ccccc3Cl)o2)c1 do in these assays?
RN4220 kill: -15; Bead autofluor: 3329; Mtb hypoxia inh: 3; ugtP null kill: -18; PrP 5UTR inh: -15; BJeLR lethal: -3; Mtb hypoxia inh growth: 8

How did O=C(N/N=C/c1cn(-c2ccccc2)nc1-c1cc2ccccc2o1)c1ccncc1 do in these assays?
Bead autofluor: 2007; PrP 5UTR inh: -184; BJeLR lethal: -6

Results for O=C(C1COc2ccccc2O1)N1CCN(S(=O)(=O)c2ccccc2)CC1 (stereo unspecified) ?
RN4220 kill: 2.5; Bead autofluor: 4636; Mtb hypoxia inh: 0; ugtP null kill: 12; PrP 5UTR inh: 5; BJeLR lethal: -4; Mtb hypoxia inh growth: -4

How did COc1cccc(OC)c1OCCOc1ccc(C(=O)c2ccccc2)cc1 do in these assays?
RN4220 kill: 7.0; Bead autofluor: 2053; Mtb hypoxia inh: 11; ugtP null kill: 12; PrP 5UTR inh: -9; BJeLR lethal: -2; Mtb hypoxia inh growth: 6

What do the screens show for `CCCCCn1c(=O)c(-c2nc3ccccc3c(=O)[nH]2)c(O)c2ccccc21`?
RN4220 kill: 2.8; Mtb hypoxia inh: 4; ugtP null kill: 2; BJeLR lethal: 6; Mtb hypoxia inh growth: 15

What do the screens show for `CC(C)NC(=O)c1ccc2c(c1)S(=O)(=O)c1ccccc1C2=O`?
RN4220 kill: 6.8; Bead autofluor: 2535; Mtb hypoxia inh: -8; ugtP null kill: 10; PrP 5UTR inh: -13; BJeLR lethal: 12; Mtb hypoxia inh growth: 9

Results for COc1ccc2c(c1OC)C(=O)N1N=C(c3ccc(-c4ccccc4)cc3)CC21 (stereo unspecified) ?
RN4220 kill: -2.1; Bead autofluor: 4927; Mtb hypoxia inh: 10; ugtP null kill: -1; PrP 5UTR inh: -17; BJeLR lethal: 0; Mtb hypoxia inh growth: 11

What do the screens show for `Cc1ccc(S(=O)(=O)N2C(c3cccc(C)c3)CC=C(C(=O)O)C2c2ccc(F)cc2)cc1` (stereo unspecified)?
RN4220 kill: 13; Mtb hypoxia inh: 8; ugtP null kill: 70; Mtb hypoxia inh growth: 4

How did O=C(O)CC(NC(=O)C(c1ccccc1)c1ccccc1)c1ccco1 (stereo unspecified) do in these assays?
RN4220 kill: -5.3; Bead autofluor: 3995; ugtP null kill: -6; PrP 5UTR inh: -7; BJeLR lethal: 0

How did CC(C)NS(=O)(=O)c1ccc(Br)c(C(=O)OC(C)C(=O)NC2CCCCC2C)c1 (stereo unspecified) do in these assays?
RN4220 kill: 0.2; Bead autofluor: 6387; Mtb hypoxia inh: 7; ugtP null kill: 2; PrP 5UTR inh: -26; BJeLR lethal: -3; Mtb hypoxia inh growth: 3

What do the screens show for `COc1ccc(N2CCN(C(=O)C3CCN(S(=O)(=O)N4CCOCC4)CC3)CC2)cc1`?
RN4220 kill: -15; Bead autofluor: 2769; Mtb hypoxia inh: 3; ugtP null kill: -9; PrP 5UTR inh: -11; Mtb hypoxia inh growth: 6

How did O=C(NCc1ccccc1)C(c1ccc(F)cc1)N(Cc1ccc2c(c1)OCO2)C(=O)Cn1nnc(-c2cccs2)n1 (stereo unspecified) do in these assays?
RN4220 kill: -2.9; Bead autofluor: 3945; Mtb hypoxia inh: -1; ugtP null kill: -2; PrP 5UTR inh: -16; BJeLR lethal: -5; Mtb hypoxia inh growth: 3

How did CC(=O)Oc1ccc2c(c1)C(=O)c1ccccc1C2=O do in these assays?
RN4220 kill: 12; Bead autofluor: 3389; Mtb hypoxia inh: 7; ugtP null kill: -3; PrP 5UTR inh: -19; BJeLR lethal: -3; Mtb hypoxia inh growth: 2

How did CCc1cccc(NC(=O)CN(C)S(=O)(=O)c2cnc[nH]2)c1 do in these assays?
RN4220 kill: -1.6; Bead autofluor: 2419; Mtb hypoxia inh: 7; ugtP null kill: 7; PrP 5UTR inh: -4; BJeLR lethal: 6; Mtb hypoxia inh growth: 1

How did Oc1c(C(c2cccs2)N2CCC3(CC2)OCCO3)sc2ncnn12 (stereo unspecified) do in these assays?
RN4220 kill: -0.5; Bead autofluor: 6719; Mtb hypoxia inh: 1; ugtP null kill: -3; PrP 5UTR inh: -22; BJeLR lethal: -14; Mtb hypoxia inh growth: 3

Results for O=C(NC1CCN(C(=S)NCCc2ccccc2)CC1)C1CC1 ?
RN4220 kill: -0.8; Bead autofluor: 4346; Mtb hypoxia inh: 2; ugtP null kill: -4; PrP 5UTR inh: -20; BJeLR lethal: 5; Mtb hypoxia inh growth: 9

What do the screens show for `CCn1c(CC(=O)Nc2ccc(Cl)c(Cl)c2)nnc1SCc1ccc(C)cc1`?
RN4220 kill: 7.7; Bead autofluor: 2097; ugtP null kill: 2; PrP 5UTR inh: -22; BJeLR lethal: -15

How did Cc1cc(N2CCCCC2)nc2ccc(NC(=O)c3ccc(Br)o3)cc12 do in these assays?
RN4220 kill: 0.8; Bead autofluor: 4622; Mtb hypoxia inh: 2; ugtP null kill: -17; PrP 5UTR inh: -13; BJeLR lethal: 0; Mtb hypoxia inh growth: 12
